# Screening data: PubChem BioAssay, National Center for Advancing Translational Sciences (NCATS)
# GAA glycogen = inhibitors or activators of human alpha-glucosidase glycogen cleavage. P10253. Potency, µM (doses to about 76.4 µM), for inactives: at the highest dose activity change, negative = inhibition, actives largely listed as inhibitors. recombinant GAA, glycogen substrate, Amplex Red glucose oxidase fluorescence. 300,000 tested, 0.38% active;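 also: 0% = full enzyme reaction and -100% = no-enzyme basal signal; the screen sought inhibitors and activators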
#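 qHTS, 1536-well; enzyme 4 nM final; cpd up to 77 uM; substrate bovine liver glycogen 30 ug; 50 mM citrate/phosphate pH 5.0, 0.01% Tween-20; 37 C, 40 min; Amplex Red detection 45 min RT; Hill fit → AC50.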
# Tau fluor cs = counter-screen for tau fibril formation inhibitors; tau K18 P301L (four-repeat tau fragment) Alexa594 fluorescence, heparin fibrillization; Potency, µM (titrated, usually from 57.7 µM), inactives show top-dose activity change, negative = decrease; 280,000 tested, 0.93% active; also: % is scaled to controls: 0 for no effect and ±100 for the full control effect; nearly all actives have a fitted effect of over 55% in size
#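 Human K18 P301L tau (15 uM unlabeled plus 0.24 uM Alexa 594-labeled, final) in 100 mM sodium acetate pH 7 was mixed with compound and 20 uM heparin and incubated 6 hr at 37 C.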
# aGal spleen mod = inhibitors or activators of human alpha-galactosidase in spleen homogenate | human spleen homogenate, 4MU-alpha-Gal fluorescence, 40 min | P06280 | Potency, µM (series often up to 80 µM), for inactives: top-dose activity change, negative = inhibition, hits mostly inhibitors | 240,000 tested, 0.008% active | AID 2107;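 also: 0% = enzyme with vehicle and -100% = no enzyme basal signal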
# Target sequence (P06280 32-429 limits assumed): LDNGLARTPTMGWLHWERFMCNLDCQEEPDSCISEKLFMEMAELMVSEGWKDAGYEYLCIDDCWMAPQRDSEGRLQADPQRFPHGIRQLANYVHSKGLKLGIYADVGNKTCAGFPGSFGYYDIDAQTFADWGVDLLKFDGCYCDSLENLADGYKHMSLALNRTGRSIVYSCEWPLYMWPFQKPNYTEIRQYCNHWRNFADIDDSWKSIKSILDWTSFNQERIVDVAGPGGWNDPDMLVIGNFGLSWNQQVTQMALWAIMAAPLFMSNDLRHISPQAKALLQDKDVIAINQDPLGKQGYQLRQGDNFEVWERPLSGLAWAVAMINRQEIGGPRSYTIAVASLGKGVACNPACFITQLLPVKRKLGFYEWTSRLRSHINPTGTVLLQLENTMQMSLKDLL
#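 Human spleen homogenate (1 ug) was the enzyme source, with 4-methylumbelliferyl-alpha-D-galactopyranoside (1 mM final) in pH 5.0 citrate buffer with 0.01% Tween-20. Compounds were titrated; after 40 min at 37C, NaOH/glycine stop, 4-MU fluorescence read; AC50 from Hill fits.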
# GAA inh = blocks human lysosomal alpha-glucosidase; purified human GAA, 4-MU-alpha-glucoside fluorescence; Potency, µM (top dose mostly 76.9 µM), for the others: top-dose activity change, negative = inhibition, most hits filed as inhibitors; 200,000 tested, 0.005% active; AID 1466;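 also: plate controls were uninhibited enzyme wells for no effect and no-enzyme background for full effect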
#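 Activity normalized between no-enzyme (basal) and enzyme-only wells. Conditions: 4 nM human enzyme, 400 uM fluorogenic substrate, citrate/phosphate pH 5.0 with Tween-20, 20 min room temperature, compounds up to 77 uM.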
# ALDH1A1 inh = blocks purified human ALDH1A1 activity | 220,000 tested, 7.3% active | Potency, µM (top dose mostly 75.3 µM), for the others: top-dose activity, negative = inhibition, usual class: inhibitors | Purified ALDH1A1, NADH fluorescence, propionaldehyde substrate | P00352; active = well fitted inhibition curve with a large enough effect, not every such curve was filed as active; inconclusive = small, poorly fitted or top-dose-only effect, or another doubt; inactive = no such curve, though single readings can be large or run the other way;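 also: plate controls were no enzyme wells and a reference inhibitor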
# Target sequence (P00352 whole entry, looked up): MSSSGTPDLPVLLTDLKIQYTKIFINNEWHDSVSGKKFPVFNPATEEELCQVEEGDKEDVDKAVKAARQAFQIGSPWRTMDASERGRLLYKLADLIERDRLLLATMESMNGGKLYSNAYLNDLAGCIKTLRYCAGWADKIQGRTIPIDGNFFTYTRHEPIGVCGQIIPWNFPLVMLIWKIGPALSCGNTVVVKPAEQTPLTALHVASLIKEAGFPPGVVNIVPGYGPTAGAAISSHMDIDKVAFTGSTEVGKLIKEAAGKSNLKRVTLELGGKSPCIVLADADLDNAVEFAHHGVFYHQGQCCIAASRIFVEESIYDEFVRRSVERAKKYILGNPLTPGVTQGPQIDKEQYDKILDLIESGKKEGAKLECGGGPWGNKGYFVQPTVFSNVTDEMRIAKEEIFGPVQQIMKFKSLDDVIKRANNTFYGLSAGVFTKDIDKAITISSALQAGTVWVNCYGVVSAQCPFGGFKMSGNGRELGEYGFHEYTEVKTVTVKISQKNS
# aGlu spleen mod = inhibitors or activators of human alpha-glucosidase in spleen homogenate; P10253; human spleen homogenate, 4-MU-alpha-glucoside fluorescence; Potency, µM (titrated, usually from 79.9 µM), without a hit: at the top dose activity change, negative = inhibition, actives largely listed as inhibitors; 240,000 tested, 0.006% active; AID 2112;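 also: 0% = enzyme with vehicle and -100% = no enzyme basal signal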
#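 AC50 values come from Hill-equation fits of concentration-response data, normalized to no-enzyme and full-activity controls. Enzyme source: 1 ug human spleen homogenate; 1 mM fluorogenic 4-MU glucoside, pH 5.0 citrate buffer, 37 C, 40 min.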
# Epigenetic derep = regulators of epigenetic silencing causing reporter derepression in mouse cells | murine LDR cells, GFP reporter derepression, 30 h | Potency, µM (titrated, usually from 53.9 µM), inactives show at the top dose GFP activation, actives largely listed as activators | 280,000 tested, 0.2% active | AID 1865; also: % of control where 0% means no effect; nearly all actives have a fitted effect of over 60% in size
#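 Murine LDR cells bearing a silenced CMV-driven GFP reporter were exposed to compound for 30 h at 37 C. After PBS washes, GFP-positive cells (20-120 um objects) counted by laser-scanning microplate cytometry.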
# Starred values were filed as active, the others as inactive; ? = inconclusive; . = no result given; [ ] = another dose, or the depositor's remark. Unless noted, calls follow the shape of the dose curve; as a rule, active = well fitted curve in the direction sought with a large enough effect; inconclusive = small, poorly fitted or top-dose-only effect, or another doubt; inactive = no such curve, though single readings can be large; an effect the other way counts as inactive or inconclusive. Potency is read from the fitted curve at half-maximal effect.
no. | SMILES | ALDH1A1 inh | Epigenetic derep | GAA inh | aGal spleen mod | GAA glycogen | aGlu spleen mod | Tau fluor cs
1 | Clc1ccc(C(c2nnnn2CCc2ccccc2)N2CCSCC2)cc1 (stereo unspecified) | 5% | 0.0% | 2% | -10% | -10% | -6% | -17%
2 | COc1ccc(Cl)cc1NC(=S)N(Cc1ccccc1C)CC1CCC(C(=O)O)CC1 (stereo unspecified) | ? | -0.2% | -9% | 2% | -7% | 1% | -11%
3 | CCN(CC)S(=O)(=O)c1ccc(OC)c(NC(=O)COc2ccc3c(C)cc(=O)oc3c2)c1 | ? | 1.1% | 2% | 15% | -9% | 7% | -14%
4 | O=C(Nc1cc(Cl)ccc1N1CCCCC1)c1cccs1 | -6% | 0.0% | -9% | 0% | 1% | 6% | -26%
5 | Cc1ccc(NC(=O)C2CC(c3ccc(F)cc3)=NO2)cc1 (stereo unspecified) | 8% | -0.9% | -1% | 14% | 2% | 3% | -10%
6 | COc1ccc2cc(C(c3nnnn3C3CCCC3)N3CCc4ccccc4C3)c(=O)[nH]c2c1 (stereo unspecified) | 18µM* | -5.7% | -6% | 2% | -2% | -4% | -20%
7 | O=C(O)c1cc2ccc3ccccc3c2oc1=O | ? | 0.0% | -1% | 15% | 6% | 5% | 8%
8 | CSc1n[nH]c(NCc2cccs2)n1 | 11% | -1.1% | -9% | 0% | -1% | -6% | 5%
9 | O=C(NCc1cccs1)c1cnc2sccn2c1=O | ? | -0.8% | 1% | 6% | 4% | -7% | 1%
10 | CCCCNC(=O)COC(=O)c1ccc(NS(=O)(=O)c2ccc3c(c2)OCCO3)cc1 | -10% | 0.2% | -12% | 7% | -2% | 2% | -15%
11 | CC1=C(OC(=O)c2ccccc2)C(C)(C)C(c2ccc(Br)cc2)OC1=O (stereo unspecified) | -16% | 0.8% | -9% | 0% | 5% | 3% | -14%
12 | N#CC(C#N)=Cc1cn(-c2ncc(C(F)(F)F)cc2Cl)c2ccccc12 | ? | 3.1% | -7% | -10% | -6% | -11% | -19%
13 | COc1ccc(F)cc1C(=O)C1CCCN(Cc2ccc(Sc3nncn3C)o2)C1 (stereo unspecified) | 5% | 1.7% | 5% | 1% | -9% | -17% | -3%
14 | CC(C)(C)N(Cc1ccccc1)C(=O)c1ccc2c(c1)OCCO2 | -1% | -0.7% | -2% | -6% | -3% | -5% | -4%
15 | COc1ccc(/C=C2/Sc3ccc(C(=O)N4CCc5ccccc5C4)cc3NC2=O)cc1 | -8% | -0.9% | -1% | 6% | -3% | 3% | -27%
16 | COC(=O)C1=C(C)NC(=S)NC1c1ccc(-c2cc(Cl)ccc2Cl)o1 (stereo unspecified) | . | 7.5% | . | -3% | 3% | -7% | -11%
17 | Cc1cc(C)n(-c2ccc(C(=O)Nc3sccc3C(N)=O)cc2)n1 | -7% | -1.3% | -5% | 11% | 2% | -5% | -12%
18 | COC(=O)c1cccc(NC(=O)c2ccc(S(=O)(=O)N3CCN(C)CC3)cc2)c1 | -11% | 0.2% | 1%[15.4 µM] | 0% | 6% | 4% | -1%
19 | CC(C)(C)c1ccc(OCC(=O)NC2CCS(=O)(=O)C2)cc1 (stereo unspecified) | -6% | -2.1% | -3% | 2% | -2% | -5% | -3%
20 | O=c1c2ccccc2n(Cc2ccc(F)cc2)c(=O)n1C1CCCC1 | 2% | -0.8% | 3% | -1% | 0% | 4% | -10%
21 | Cc1ccccc1NC(=O)c1sc2nc3c(c(-c4ccco4)c2c1N)CCCC3 | ? | 4.5% | -4% | 12% | 1% | 10% | -24%
22 | CCOC(=O)c1cc(C#N)c(N2CCN(c3ccccn3)CC2)nc1-c1ccccc1 | ? | -1.5% | 4% | 0% | -8% | 6% | -13%
23 | N#C/C(=C\c1cn(Cc2ccc(F)cc2)c2ccccc12)C(=O)NCc1ccco1 | -1% | 0.2% | 0% | 8% | 15% | -4% | 4%
24 | CCN1C(=O)CSc2ccc(C(=O)NC3CCCCC3)cc21 | 13µM* | 0.0% | -2% | -1% | 5% | -5% | -8%
25 | Cc1[nH]nc(N=CC2=C(O)CC(c3ccco3)CC2=O)c1-c1ccc(Cl)cc1 (stereo unspecified) | ? | 1.0% | 2% | 1% | 3% | -2% | -4%
26 | Cc1cc2ncn(CC(O)COC3CCCCC3)c2cc1C (stereo unspecified) | 2% | -7.2% | -2% | -1% | -3% | 2% | -6%
27 | c1ccc(Cn2c(CNc3nc4ccccc4n3CCN3CCCCC3)nc3ccccc32)cc1 | -1% | -1.2% | -18% | -2% | 2% | -7% | -20%
28 | Cc1ccc(C)c(N2CCN(C(=O)C3CCCN(S(=O)(=O)c4c(C)noc4C)C3)CC2)c1 (stereo unspecified) | -6% | -0.8% | -16% | -1% | -10% | -15% | -12%
29 | COc1ccc(OCc2nnc(SCc3ccc(C(=O)O)cc3)o2)cc1 | 13% | -1.0% | ? | -4% | 9% | -2% | -17%
30 | O=C(O)CSc1nc(-c2ccc(Cl)cc2)nc2c1oc1ccccc12 | ? | 16% | ? | -3% | 9% | 6% | 20%

# Arranged by molar mass (highest first): part of the list above
no. | SMILES | ALDH1A1 inh | Epigenetic derep | GAA inh | aGal spleen mod | GAA glycogen | aGlu spleen mod | Tau fluor cs
3 | CCN(CC)S(=O)(=O)c1ccc(OC)c(NC(=O)COc2ccc3c(C)cc(=O)oc3c2)c1 | ? | 1.1% | 2% | 15% | -9% | 7% | -14%
28 | Cc1ccc(C)c(N2CCN(C(=O)C3CCCN(S(=O)(=O)c4c(C)noc4C)C3)CC2)c1 (stereo unspecified) | -6% | -0.8% | -16% | -1% | -10% | -15% | -12%
10 | CCCCNC(=O)COC(=O)c1ccc(NS(=O)(=O)c2ccc3c(c2)OCCO3)cc1 | -10% | 0.2% | -12% | 7% | -2% | 2% | -15%
22 | CCOC(=O)c1cc(C#N)c(N2CCN(c3ccccn3)CC2)nc1-c1ccccc1 | ? | -1.5% | 4% | 0% | -8% | 6% | -13%
16 | COC(=O)C1=C(C)NC(=S)NC1c1ccc(-c2cc(Cl)ccc2Cl)o1 (stereo unspecified) | . | 7.5% | . | -3% | 3% | -7% | -11%
12 | N#CC(C#N)=Cc1cn(-c2ncc(C(F)(F)F)cc2Cl)c2ccccc12 | ? | 3.1% | -7% | -10% | -6% | -11% | -19%
29 | COc1ccc(OCc2nnc(SCc3ccc(C(=O)O)cc3)o2)cc1 | 13% | -1.0% | ? | -4% | 9% | -2% | -17%
17 | Cc1cc(C)n(-c2ccc(C(=O)Nc3sccc3C(N)=O)cc2)n1 | -7% | -1.3% | -5% | 11% | 2% | -5% | -12%
20 | O=c1c2ccccc2n(Cc2ccc(F)cc2)c(=O)n1C1CCCC1 | 2% | -0.8% | 3% | -1% | 0% | 4% | -10%
14 | CC(C)(C)N(Cc1ccccc1)C(=O)c1ccc2c(c1)OCCO2 | -1% | -0.7% | -2% | -6% | -3% | -5% | -4%
4 | O=C(Nc1cc(Cl)ccc1N1CCCCC1)c1cccs1 | -6% | 0.0% | -9% | 0% | 1% | 6% | -26%
9 | O=C(NCc1cccs1)c1cnc2sccn2c1=O | ? | -0.8% | 1% | 6% | 4% | -7% | 1%
8 | CSc1n[nH]c(NCc2cccs2)n1 | 11% | -1.1% | -9% | 0% | -1% | -6% | 5%

# Additional results:
no. | SMILES | ALDH1A1 inh | Epigenetic derep | GAA inh | aGal spleen mod | GAA glycogen | aGlu spleen mod | Tau fluor cs
31 | Cc1cc(N/N=C/c2ccc(F)cc2)nc(NCc2ccccc2)n1 | . | 0.0% | . | 9% | -1% | 5% | ?
32 | c1ccc(N(c2ccccc2)c2nc(N3CCCC3)nc(-n3ccnc3)n2)cc1 | 2% | -1.1% | -10% | 0% | -10% | -5% | -18%
33 | CCn1c(SCc2ccccc2)nnc1-c1ccc(S(=O)(=O)N2CCCCC2)cc1 | ? | -1.0% | ? | -2% | -8% | -15% | -4%
34 | Cc1c(N=C2NC(=O)C(CC(=O)Nc3ccc(Cl)cc3)S2)c(=O)n(-c2ccccc2)n1C (stereo unspecified) | ? | 1.1% | 5% | -4% | -2% | -7% | -8%
35 | NC(=S)N/N=C/c1ccc(-c2cc(Cl)cc(Cl)c2)o1 | ? | -0.7% | -12% | -2% | -9% | -9% | -27%
36 | CN(C(=O)c1cccc(Nc2ccc(-c3ccc4c(c3)OCCO4)nn2)c1)C1CCCCC1 | 25µM* | -1.5% | -11% | -11% | -7% | -4% | ?
37 | CN(Cc1ccccc1)C(=O)c1ccc2c(c1)OCO2 | -4% | 0.0% | -7% | 5% | -2% | -15% | -1%
38 | CC1=C(C(=O)Nc2cccnc2)C(c2ccccn2)n2nnnc2N1 (stereo unspecified) | 14µM* | 5.0% | -4% | -4% | 6% | -21% | 0%
39 | CCc1ccc(S(=O)(=O)Nc2ccc(-c3nc4cccnc4s3)cc2)s1 | ? | -0.8% | . | ? | -12% | ? | -27%
40 | C=CCOc1ccc(/C(CC)=N/O)c(OC)c1 | ? | -1.1% | -7% | 7% | -4% | -1% | -7%
41 | CCOC(=O)C1=C(C)NC2=C(C1c1ccc([N+](=O)[O-])cc1)S(=O)(=O)c1ccccc12 (stereo unspecified) | 2.5µM* | 0.1% | -14% | 0% | 1% | -1% | ?
42 | CCOC(=O)c1sc(=S)n2c1[nH]c(=O)c1ccc(C(=O)OC)cc12 | 8.9µM* | -1.1% | -4% | -3% | -9% | -5% | -23%
43 | COc1cccc(C(c2c(NC(=O)c3ccccc3)sc(C)c2C)N2CCN(C)CC2)c1 (stereo unspecified) | -14% | 0.0% | 5% | 4% | 3% | 3% | ?
44 | Cc1nnc(SCC2CCCO2)n1-c1ccccc1 (stereo unspecified) | 2% | 0.0% | -4% | -17% | -6% | -3% | 8%
45 | CCOc1ccc(-c2nnc(Nc3ccc(OC)c(C(=O)N4CCCCC4)c3)c3ccccc23)cc1 | ? | 1.1% | -9% | -9% | 2% | -12% | -23%

# Not all compounds are listed; rates above refer to the full screens.
